Screens deposited in PubChem BioAssay by Broad Institute.
NOMO-1 viab: STK33 inhibitor candidate reducing NOMO-1 cell viability | 37,000 compounds, 7.5% hits | inhibition, % (concentration not given with the values) | NOMO-1 AML viability, CellTiter-Glo luminescence, 72 h;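 active means most replicates above 80%; inconclusive means exactly half above 80%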;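 further: wells of about 30 µL received 25 nL stock; 0% = median of vehicle wells and 100% = reference inhibitor level; the first replicate is given; inactives centre near 10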
An asterisk follows results filed as active. A portion of the library, so the mix of outcomes need not match the whole.

Screening COc1ccc(CN(C)C[C@@H]2Oc3ccc(NS(=O)(=O)c4cn(C)cn4)cc3C(=O)N([C@@H](C)CO)C[C@@H]2C)cc1 returned NOMO-1 viab -2.
Cc1cc(=O)oc2cc(OCC(=O)Nc3sc4c(c3C#N)CCC4)ccc12 was read as NOMO-1 viab 38.
`COc1ccc(S(=O)(=O)Nc2ccc3c(c2)C(=O)N([C@H](C)CO)C[C@H](C)[C@@H](CN(C)S(C)(=O)=O)OCCCC[C@@H](C)O3)cc1` gave NOMO-1 viab -2.
`C[C@@H]1CN([C@H](C)CO)C(=O)c2cc(NS(=O)(=O)c3cccs3)ccc2O[C@@H]1CN(C)C(=O)Nc1cccc2ccccc12` gave NOMO-1 viab 5.
For CNC[C@@H]1Oc2ccc(N)cc2C(=O)N([C@H](C)CO)C[C@H]1C the results were NOMO-1 viab 13.
CNC[C@@H]1Oc2ccc(NS(=O)(=O)c3cn(C)cn3)cc2CC(=O)N([C@H](C)CO)C[C@@H]1C was read as NOMO-1 viab 4.
For C[C@H]1CN([C@@H](C)CO)C(=O)c2cccc(NC(=O)Nc3ccc4c(c3)OCO4)c2O[C@@H]1CN(C)C(=O)NC1CCCCC1 the results were NOMO-1 viab 21.
`C[C@@H]1CN([C@H](C)CO)C(=O)c2cc(NS(=O)(=O)c3cccs3)ccc2O[C@@H]1CN(C)Cc1ccc2c(c1)OCO2` gave NOMO-1 viab 1.
`C[C@H]1CN([C@@H](C)CO)C(=O)c2cccc(NC(=O)NC3CCCCC3)c2O[C@H]1CN(C)C(=O)Nc1cccc2ccccc12` gave NOMO-1 viab 35.
`Cc1ccc(S(=O)(=O)N(C)C[C@H]2OCCCC[C@@H](C)Oc3ccc(NC(=O)CCCCCC(=O)Nc4ccccc4N)cc3C(=O)N([C@H](C)CO)C[C@@H]2C)cc1` gave NOMO-1 viab 50.
`Cc1noc(C)c1NC(=O)N(C)C[C@H]1Oc2ccc(NC(=O)Nc3ccc(F)cc3)cc2C(=O)N([C@@H](C)CO)C[C@H]1C` gave NOMO-1 viab 5.
Screening Cc1ccc(S(=O)(=O)N(C)C[C@H]2Oc3ccc(NC(=O)C4CCCCC4)cc3CC(=O)N([C@@H](C)CO)C[C@H]2C)cc1 returned NOMO-1 viab 29.

Overlap with the part before: three compounds; new compounds follow.
`Cc1ccc(S(=O)(=O)N(C)C[C@H]2OCCCC[C@@H](C)Oc3ccc(NC(=O)CCCCCC(=O)Nc4ccccc4N)cc3C(=O)N([C@H](C)CO)C[C@@H]2C)cc1` gave NOMO-1 viab 50.
`Cc1noc(C)c1NC(=O)N(C)C[C@H]1Oc2ccc(NC(=O)Nc3ccc(F)cc3)cc2C(=O)N([C@@H](C)CO)C[C@H]1C` gave NOMO-1 viab 5.
Screening Cc1ccc(S(=O)(=O)N(C)C[C@H]2Oc3ccc(NC(=O)C4CCCCC4)cc3CC(=O)N([C@@H](C)CO)C[C@H]2C)cc1 returned NOMO-1 viab 29.
`CC(C)NC(=O)Nc1ccc2c(c1)CC(=O)N([C@@H](C)CO)C[C@@H](C)[C@@H](CN(C)Cc1ccc(C(=O)Nc3ccccc3N)cc1)O2` gave NOMO-1 viab 107*.
Screening C[C@@H]1CCCCO[C@H](CN(C)C(=O)Cc2ccccc2)[C@@H](C)CN([C@H](C)CO)C(=O)c2cc(NC(=O)Nc3ccc4c(c3)OCO4)ccc2O1 returned NOMO-1 viab 5.
C[C@@H]1CN([C@@H](C)CO)C(=O)c2cc(NC(=O)c3ccncc3)ccc2O[C@@H]1CN(C)C(=O)Nc1ccccc1 was read as NOMO-1 viab 12.
`C[C@@H]1CN([C@@H](C)CO)C(=O)c2cccc(NC(=O)C3CCCCC3)c2O[C@H]1CN(C)S(=O)(=O)c1ccccc1` gave NOMO-1 viab 9.
O=C(COc1ccc(Cl)cc1)Nc1cccnc1 was read as NOMO-1 viab -22.
CN(C)S(=O)(=O)N(CC(=O)Nc1ccccc1C(F)(F)F)c1ccccc1 was read as NOMO-1 viab 6.
For C[C@H](CO)N1C[C@H](C)[C@@H](CN(C)C(=O)Nc2ccccc2)Oc2c(NC(=O)CCCCCC(=O)Nc3ccccc3N)cccc2C1=O the results were NOMO-1 viab 22.
Screening C[C@H](CO)N1C[C@H](C)[C@H](CN(C)S(=O)(=O)c2ccccc2)Oc2ccc(NS(=O)(=O)c3cn(C)cn3)cc2CC1=O returned NOMO-1 viab 7.
For COc1cc2c(Cc3ccc(OC)c(OC)c3)nccc2cc1O the results were NOMO-1 viab 34.
`CC(C)NC(=O)Nc1ccc2c(c1)C(=O)N([C@@H](C)CO)C[C@@H](C)[C@H](CN(C)S(=O)(=O)c1ccc(F)cc1)O2` gave NOMO-1 viab 33.
`C[C@@H]1CN([C@H](C)CO)C(=O)Cc2cc(NS(C)(=O)=O)ccc2O[C@@H]1CN(C)C` gave NOMO-1 viab 11.
Screening Cc1noc(C)c1S(=O)(=O)Nc1ccc2c(c1)C(=O)N([C@@H](C)CO)C[C@H](C)[C@@H](CN(C)C(=O)Nc1ccc(C(F)(F)F)cc1)O2 returned NOMO-1 viab 7.
O=C(CSc1nnc(-c2cccnc2)n1-c1ccccc1)N1CCN(c2ccc(F)cc2)CC1 was read as NOMO-1 viab 20.
For C[C@@H]1CN([C@H](C)CO)C(=O)c2cccc(NC(=O)Nc3ccccc3)c2O[C@@H]1CN(C)C(=O)Nc1ccc(F)cc1 the results were NOMO-1 viab 28.
`O=C(NCCN1CCOCC1)C1CC(c2ccc(Cl)c(Cl)c2)=NO1` (centres undefined) gave NOMO-1 viab -25.
Screening c1ccc(C2=N[C@H](c3ccccc3)[C@H](c3ccccc3)N2)cc1 returned NOMO-1 viab 44.
`C[C@@H]1CN([C@H](C)CO)C(=O)c2cccc(NC(=O)c3nc4ccccc4s3)c2O[C@@H]1CN(C)C(=O)Nc1ccc(C(F)(F)F)cc1` gave NOMO-1 viab 44.
For COc1ccc(S(=O)(=O)Nc2ccc3c(c2)C(=O)N([C@H](C)CO)C[C@H](C)[C@@H](CN(C)Cc2ccc(C(=O)Nc4ccccc4N)cc2)O3)cc1 the results were NOMO-1 viab 17.
Screening C[C@H](CO)N1C[C@H](C)[C@H](CN(C)Cc2ccc(Oc3ccccc3)cc2)Oc2ccc(NC(=O)Nc3ccc(F)cc3)cc2CC1=O returned NOMO-1 viab 98*.
Cc1noc(C)c1S(=O)(=O)Nc1ccc2c(c1)C(=O)N([C@H](C)CO)C[C@@H](C)[C@H](CN(C)C(=O)Nc1ccc(C(F)(F)F)cc1)O2 was read as NOMO-1 viab 36.
Cc1ccc(OCc2n[nH]c(=S)n2C2CCCCC2)c2c1CCC2 was read as NOMO-1 viab 111*.
O=C(CSc1nnc(-c2cccc([N+](=O)[O-])c2)n1-c1ccccc1)NC1CCCCC1 was read as NOMO-1 viab -5.
For N#CC(C#N)(Cc1ccccc1)Cc1ccccc1 the results were NOMO-1 viab 29.
Screening O=C(CN1C(=O)c2cccc3cccc(c23)C1=O)NCC(O)c1ccccc1 (centres undefined) returned NOMO-1 viab -7.
`C[C@H]1CN([C@@H](C)CO)C(=O)c2cc(NC(=O)C3CC3)ccc2O[C@@H]1CN(C)C(=O)Nc1cccc2ccccc12` gave NOMO-1 viab 4.
`C[C@@H]1CN([C@H](C)CO)C(=O)Cc2cc(NS(=O)(=O)c3ccccc3)ccc2O[C@H]1CN(C)C(=O)Nc1ccc(C(F)(F)F)cc1` gave NOMO-1 viab 6.
For C[C@H]1CN([C@@H](C)CO)C(=O)c2cccc(NC(=O)C3CC3)c2O[C@@H]1CN(C)Cc1ccccc1 the results were NOMO-1 viab 10.
Screening COc1ccc(CN(C)C[C@H]2Oc3ccc(NS(=O)(=O)c4ccc(F)cc4)cc3CC(=O)N([C@@H](C)CO)C[C@H]2C)cc1 returned NOMO-1 viab 17.
`CC(C)NC(=O)N(C)C[C@H]1Oc2ccc(NS(=O)(=O)c3cccs3)cc2C(=O)N([C@H](C)CO)C[C@@H]1C` gave NOMO-1 viab -13.
Screening Cc1scc(C(=O)Nc2cccc(Cn3cccn3)c2)c1-c1ccccc1 returned NOMO-1 viab 35.
`C[C@H](CO)N1C[C@H](C)[C@H](CN(C)C(=O)Nc2ccc3c(c2)OCO3)Oc2ccc(NC(=O)Nc3ccc(C(F)(F)F)cc3)cc2C1=O` gave NOMO-1 viab 99*.
For CNC[C@@H]1Oc2ccc(NC(=O)Nc3ccc(OC)cc3)cc2CC(=O)N([C@@H](C)CO)C[C@@H]1C the results were NOMO-1 viab 10.
Screening C[C@H]1CN([C@@H](C)CO)C(=O)Cc2cc(NC(=O)Nc3ccc4c(c3)OCO4)ccc2O[C@@H]1CN(C)C(=O)Nc1ccc2c(c1)OCO2 returned NOMO-1 viab 11.
For C[C@@H]1CCCCO[C@@H](CN(C)S(=O)(=O)c2ccc(F)cc2)[C@@H](C)CN([C@H](C)CO)C(=O)c2cc(NC(=O)Nc3ccc4c(c3)OCO4)ccc2O1 the results were NOMO-1 viab 10.
For C[C@@H]1CN([C@H](C)CO)C(=O)c2cccc(NS(=O)(=O)c3cccs3)c2O[C@@H]1CN(C)S(=O)(=O)c1cccs1 the results were NOMO-1 viab 32.
For COc1ccc(NC(=O)CC2NC3CCCCC3NC2=O)cc1 (centres undefined) the results were NOMO-1 viab -1.
Screening C[C@H](CO)N1C[C@H](C)[C@@H](CN(C)Cc2ccc(Cl)c(Cl)c2)Oc2ccc(N(C)C)cc2C1=O returned NOMO-1 viab 41.
`C[C@@H]1CN([C@H](C)CO)C(=O)c2cccc(NS(=O)(=O)c3cn(C)cn3)c2O[C@H]1CN(C)Cc1ccncc1` gave NOMO-1 viab -21.
O=[N+]([O-])c1cccc(CSc2nnc(-c3ccco3)n2-c2ccccc2)c1 was read as NOMO-1 viab -5.
`C[C@@H]1CN([C@H](C)CO)C(=O)c2cc(NC(=O)C3CCCCC3)ccc2O[C@H]1CN(C)S(=O)(=O)c1ccc(F)cc1` gave NOMO-1 viab 13.
`C[C@@H]1CN([C@H](C)CO)C(=O)c2cc(NC(=O)Cc3cn(C)c4ccccc34)ccc2O[C@H]1CN(C)S(=O)(=O)c1ccccc1` gave NOMO-1 viab 7.
Screening C[C@@H]1CN([C@@H](C)CO)C(=O)c2cccc(NS(=O)(=O)c3ccc(Cl)cc3)c2O[C@H]1CN(C)C(=O)Nc1cccc2ccccc12 returned NOMO-1 viab 10.
Cn1nc([N+](=O)[O-])nc1Oc1ccccc1C(=O)N1CCOCC1 was read as NOMO-1 viab -1.
For c1ccc(Cn2c(SCCN3CCOCC3)nc3ccccc32)cc1 the results were NOMO-1 viab 36.
`C[C@H](CO)N1C[C@H](C)[C@H](CN(C)Cc2ccc(Oc3ccccc3)cc2)Oc2ccc(NS(=O)(=O)c3ccccc3)cc2C1=O` gave NOMO-1 viab inconclusive.
For NC(=O)C1(N2CCCCC2)CCN(CC(=O)Nc2ccccc2Sc2ccccc2)CC1 the results were NOMO-1 viab 34.
Screening COc1ccc(S(=O)(=O)N(C)C[C@H]2Oc3c(NC(=O)Nc4ccc(F)cc4)cccc3C(=O)N([C@H](C)CO)C[C@H]2C)cc1 returned NOMO-1 viab 19.
`CCn1c(SCC(=O)Nc2ccc(F)cc2)nnc1-c1cccc(Cl)c1` gave NOMO-1 viab 5.

Entries above that contain a nitro group on carbon, in the order listed:
O=C(CSc1nnc(-c2cccc([N+](=O)[O-])c2)n1-c1ccccc1)NC1CCCCC1 was read as NOMO-1 viab -5.
O=[N+]([O-])c1cccc(CSc2nnc(-c3ccco3)n2-c2ccccc2)c1 was read as NOMO-1 viab -5.
Cn1nc([N+](=O)[O-])nc1Oc1ccccc1C(=O)N1CCOCC1 was read as NOMO-1 viab -1.

New compounds follow:
`O=C(COc1ccc(Cl)cc1Cl)Nc1c[nH]c(=O)[nH]c1=O` gave NOMO-1 viab -17.
`C[C@H]1CN([C@@H](C)CO)C(=O)c2cccc(NC(=O)c3ccc(-c4nccs4)cc3)c2O[C@H]1CN(C)Cc1ccc2c(c1)OCO2` gave NOMO-1 viab 32.
Screening Cc1sc2ncnc(SCC(=O)Nc3ccccc3Cl)c2c1C returned NOMO-1 viab -9.
CC(C)(C)C(=S)Nc1cccc(Cl)c1 was read as NOMO-1 viab -14.
Screening O=C(CCCn1cc([N+](=O)[O-])cn1)Nc1cccc(C(F)(F)F)c1 returned NOMO-1 viab 0.
Cc1cc(Br)c(NC(=O)CSc2nccc(=O)[nH]2)cc1C was read as NOMO-1 viab 5.
`C[C@H](CO)N1C[C@H](C)[C@H](CN(C)S(=O)(=O)c2ccc(F)cc2)Oc2ccc(NC(=O)NC3CCCCC3)cc2C1=O` gave NOMO-1 viab 16.
COc1ccc(CN(C)C[C@@H]2Oc3ccc(NS(=O)(=O)c4ccc(C)cc4)cc3C(=O)N([C@@H](C)CO)C[C@H]2C)cc1 was read as NOMO-1 viab 7.
`N#Cc1ccccc1CSc1nnc(N)n1-c1ccccc1` gave NOMO-1 viab 17.
For CNC(=O)CN(c1ccccc1)S(=O)(=O)c1ccc(F)cc1 the results were NOMO-1 viab 22.
Screening Cn1c(SCC(=O)c2cc(C(C)(C)C)c(O)c(C(C)(C)C)c2)nnc1-c1ccncc1 returned NOMO-1 viab -4.
For c1ccc2cc(OCCN3CCOCC3)ccc2c1 the results were NOMO-1 viab -7.
C[C@H](CO)N1C[C@H](C)[C@@H](CN(C)Cc2ccc(C(F)(F)F)cc2)Oc2ccc(NC(=O)Nc3ccc(C(F)(F)F)cc3)cc2C1=O was read as NOMO-1 viab 130*.
CNC[C@@H]1Oc2ccc(NS(=O)(=O)c3ccccc3)cc2C(=O)N([C@H](C)CO)C[C@H]1C was read as NOMO-1 viab -16.
`O=C1CC(c2ccccc2)N=C(SCC(=O)Nc2ccc3ccccc3c2)N1` (centres undefined) gave NOMO-1 viab 39.
